# Beta cell apopt: inhibitors of cytokine-induced beta cell apoptosis, primary screen, luminescence; INS-1E cytokine-induced death, ATP luminescence, 48 h; percent of positive-control rescue, neutral wells zero; protection from apoptosis, % (concentration not given with the values); 300,000 tested, 0.8% active; AID 435005, 2010;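 active = all replicates at 75% or more, or half of them and the mean; inconclusive = half reach 75% but not the mean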;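 also: 0% = cytokine-treated negative control wells and 100% = positive control rescue; higher means more ATP so stronger rescue from cytokine killing; wells of about 40 µL received 100 nL stock; the first replicate is given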
# LANA-H2B inh: blockers of LANA interaction with H2A/H2B – biochemical, FP readout, HTS, primary screen; cell-free LANA-H2A/H2B peptide, fluorescence polarization; inhibition, % (no concentration beside the values); 320,000 tested, 0.6% active; AID 2629, 2010; in the data active = inhibition mostly above about 10%, no sharp cut-off; inactive = mostly below about 6.7%;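 also: stock transfer was 7.5 nL into about 10 µL; 0% = median of vehicle wells and 100% = median of positive control wells; one replicate is shown; the record names a cut of 25% in any replicate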
# Target sequence (Q9QR71 whole entry, looked up): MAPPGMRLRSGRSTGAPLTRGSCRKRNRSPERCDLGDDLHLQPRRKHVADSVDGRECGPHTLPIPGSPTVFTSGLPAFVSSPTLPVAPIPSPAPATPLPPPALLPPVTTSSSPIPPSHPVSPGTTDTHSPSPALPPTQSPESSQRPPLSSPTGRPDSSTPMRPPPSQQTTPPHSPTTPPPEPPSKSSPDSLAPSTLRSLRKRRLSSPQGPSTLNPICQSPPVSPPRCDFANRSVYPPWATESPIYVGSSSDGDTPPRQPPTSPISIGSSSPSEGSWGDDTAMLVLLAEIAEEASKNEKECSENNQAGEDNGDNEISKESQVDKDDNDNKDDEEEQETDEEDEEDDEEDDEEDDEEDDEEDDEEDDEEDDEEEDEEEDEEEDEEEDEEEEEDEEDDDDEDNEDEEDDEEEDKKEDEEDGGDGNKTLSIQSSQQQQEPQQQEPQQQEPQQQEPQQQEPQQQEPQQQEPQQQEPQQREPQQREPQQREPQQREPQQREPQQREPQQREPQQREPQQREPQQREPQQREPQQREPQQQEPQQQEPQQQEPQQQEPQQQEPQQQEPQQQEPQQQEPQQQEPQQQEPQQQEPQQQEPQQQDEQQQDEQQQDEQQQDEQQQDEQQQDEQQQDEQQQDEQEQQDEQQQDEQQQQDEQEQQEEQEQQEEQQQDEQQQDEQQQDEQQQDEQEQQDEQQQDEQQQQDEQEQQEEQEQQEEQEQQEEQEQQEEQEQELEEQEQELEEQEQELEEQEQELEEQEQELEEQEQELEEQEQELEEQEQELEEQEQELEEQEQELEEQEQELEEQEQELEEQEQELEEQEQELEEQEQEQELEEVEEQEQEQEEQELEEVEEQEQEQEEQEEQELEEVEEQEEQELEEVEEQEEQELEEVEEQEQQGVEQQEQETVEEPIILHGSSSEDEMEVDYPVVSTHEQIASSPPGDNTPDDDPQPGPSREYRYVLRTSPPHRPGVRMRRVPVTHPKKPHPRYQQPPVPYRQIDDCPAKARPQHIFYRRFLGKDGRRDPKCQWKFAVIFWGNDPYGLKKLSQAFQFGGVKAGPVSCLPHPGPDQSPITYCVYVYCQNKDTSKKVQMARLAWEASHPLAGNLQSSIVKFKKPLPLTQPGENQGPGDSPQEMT
# Calb FLC: C. albicans growth inhibition with fluconazole, primary screen, CaCi-2 strain, Alamar Blue fluorescence; 300,000 tested, 0.57% active; C. albicans CaCi-2 (fluconazole-resistant clinical isolate) + fluconazole, 48 h; growth inhibition, % (no concentration beside the values);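 active = most replicates above 75%; inconclusive = exactly half above 75%; inactive = most below 75%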;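 also: all wells also contain fluconazole at 8 µg/ml as a sub-toxic cotreatment; 0% = median of DMSO wells and 100% = median of geldanamycin control wells; wells of about 8 µL received 7.5 nL stock; the first replicate is given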
# Beta2AR agonist: beta2AR agonists driving receptor internalization, primary screen, cell-based, FAP fluorogen, flow cytometry; response, % (concentration not given with the values); Am2.2-beta2AR cells; reference of the scale not given here; Beta-2 adrenergic receptor (Homo sapiens), P07550; 340,000 tested, 0.43% active;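 active = response above a set limit, near 3 SD of response in nonfluorescent compounds, cut at about 42% in these data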;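 also: stock transfer was 100 nL into about 11 µL; a reference agonist was the positive control; negative values mostly stem from fluorescent compounds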
# ALR inh: inhibitors of human ALR sulfhydryl oxidase, primary screen, biochemical, H2O2 detection, HRP-luminol luminescence, single point | FAD-linked sulfhydryl oxidase ALR (Homo sapiens), P55789 | 290,000 tested, 3.8% active | purified ALR, DTT oxidation | inhibition, % (concentration not given with the values);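 active = mean and each replicate at 75% or more; inconclusive = only one of the two met; inactive = neither met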;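 also: stock transfer was 7.5 nL into about 7.5 µL; 0% = neutral wells and 100% = wells with inactivated enzyme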
# rRNA inh HTS: reduced GFP signal of wild-type E. coli, primary screen, bacterial rRNA inhibitor project, GFP/RFP fluorescence, OD600, single point. AID 720706, 2013. E. coli WT GFP vs humanized-ribosome RFP mutants, 24 h; stronger effect = lower value; DMSO median 0, no signal -100. GFP signal change (wild-type ribosome), % (test concentration not listed). 350,000 tested, 1.6% active;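 active = significant combined selectivity score with lowered wild-type GFP, culture density cut under 30%, mutant RFP and density less affected; inactive = any of these conditions unmet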; also: one replicate is shown; some compounds called inactive have numbers as strong as hits
# T cruzi repl: inhibitors of intracellular T. cruzi growth, primary screen, luminescence, NIH3T3 host cells; T. cruzi beta-gal in NIH3T3, 90 h; inhibition, % (concentration not given with the values); 300,000 tested, 1.4% active;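 active = mean inhibition across valid replicates above about 55%, limit read from the data; inconclusive = mean below that limit but half or more replicates reach it; inactive = mean below it, under half of replicates reach it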;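 also: signal also drops with host cell toxicity which is not excluded here; 0% = plate median of DMSO wells and 100% = zero luminescence signal; higher percent means less beta-gal luminescence so fewer parasites; stock transfer was 50 nL into about 50 µL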
# A1 inh: caspase 3/7 activation in MEF A1-2A-BIM cells, primary screen, A1 inhibitor project, cell-based, luminescence, HTS; caspase activation, % (no concentration beside the values); 330,000 tested, 0.066% active; Caspase-Glo 3/7 luminescence, 3 h; percent of clofoctol response, vehicle zero;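 active = over half of replicate activation scores above 10%, or exactly half above 10 with the replicate mean above 10; inconclusive = replicate mean below 10 yet half the replicates above 10; inactive = over half of replicates below 10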;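 also: wells of about 30 µL received 50 nL stock; many hits fall short of the cut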
# rRNA inh HTS OD600: second read-out of rRNA inh HTS, no call of its own (marks repeat the call); OD600 change, %; measured here: OD600 growth;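 optical density of the mix in the first replicate; 0 = DMSO median and -100 = no signal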
# rRNA inh HTS RFP: recorded beside rRNA inh HTS, whose call it bears; RFP signal change, %; measured here: RFP humanized mutant strains;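 first replicate; 0 = DMSO median and -100 = no signal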
# * marks the source's active call; other numbers are inactive results; ? = inconclusive; . = no result given. This is a subset; rates above refer to the full screens.
1) CC(=O)Nc1cccc(C(=O)/C=C/c2ccc(N(C)C)cc2)c1
2) OC1CSc2nc3ccccc3n2C1 (stereo unspecified)
3) C=CCSc1nc2sc3c(c2c(=O)n1-c1ccccc1)CCN(C)C3
4) O=C(C1CCN(Cc2nc(-c3ccc(Cl)cc3)no2)CC1)N1CCOCC1
5) Cc1ccc(S(=O)(=O)c2c(C)nn(-c3ccccc3)c2OC(=O)c2ccc(Br)o2)cc1
6) CC(=O)c1cc(C#N)c(Oc2ccc(F)cc2)nc1C
7) O=[N+]([O-])c1cccc(-c2ncc3ccccn23)c1
8) CCCCNC(=O)NCc1cnn(C)c1C
9) Cc1ccc(Nc2cc(-n3cccn3)ncn2)c(C)c1
10) CCCCCN(C(=O)CCC(=O)OCC(=O)N(C)c1ccccc1)c1c(N)n(CCCC)c(=O)[nH]c1=O
Compound	1	2	3	4	5	6	7	8	9	10
Beta cell apopt	10	-5	-2	0	-4	1	-2	0	-5	-2
LANA-H2B inh	-3.3	0.2	-2.4	-2.0	-1.0	2.5	-5.8	-1.7	0.5	-0.5
Calb FLC	2	-2	-2	-10	.	-3	-1	-5	11	-3
Beta2AR agonist	3	-9	-9	0	5	-9	-4	-10	-7	-4
ALR inh	99*	-1	16	-3	.	-3	7	3	3	0
rRNA inh HTS	-6	.	6	14	.	.	4	.	-1	-5
rRNA inh HTS OD600	-12	.	-2	8	.	.	6	.	-13	-5
rRNA inh HTS RFP	19	.	-0.1	3.0	.	.	3.4	.	-11	-2.1
T cruzi repl	3	-7	56*	-8	.	-6	0	-4	9	1
A1 inh	-0.8	0.2	0.9	0.6	0.4	-0.6	0.1	0.0	-3.6	0.6

11) Cn1c(=O)c(Oc2ccc(Cl)cc2)c(O)c2ccccc21
12) COC(=O)C1=C(C)N(CCc2cc(OC)c(OC)c(OC)c2)C(=O)N[C@H]1c1ccc(Br)cc1
13) COc1ccccc1Cn1c(=S)[nH]c2cc(C(=O)NC(C)C)ccc2c1=O
14) Cc1cc(=O)c2cccc(Br)c2[nH]1
15) O=C(Nc1ccc(Br)cc1)c1cc2ccccn2n1
16) CC(=O)Nc1cc(C(=O)NCc2ccco2)ccc1Sc1ccc(F)cc1
17) CCCN(CC(=O)Nc1ccccc1OC)C(=O)c1ccc2c(c1)NC(=O)C(C)S2 (stereo unspecified)
18) CCOC(=O)C1C(=O)NCC1c1ccccc1 (stereo unspecified)
19) Cc1ccc(NC(=O)C2CCCN(C(=O)NCc3ccccc3)C2)c(C)c1 (stereo unspecified)
20) CC1CCC2(CC1)NC(=O)N(CC(=O)Nc1ccc3c(c1)CCC3)C2=O (stereo unspecified)
Compound	11	12	13	14	15	16	17	18	19	20
Beta cell apopt	1	5	-10	2	-2	-2	-2	-13	-3	-2
LANA-H2B inh	-3.1	1.3	0.3	-3.6	3.9	-1.2	-1.6	1.0	5.2	-3.4
Calb FLC	?	4	-4	-14	-14	16	.	1	0	2
Beta2AR agonist	-3	.	-9	8	-1	-8	2	13	4	1
ALR inh	-1	-10	-11	5	.	-25	-7	-7	13	-14
rRNA inh HTS	-6	.	15	.	13	11	-10	9	7	4
rRNA inh HTS OD600	-6	.	14	.	23	9	-7	-10	8	3
rRNA inh HTS RFP	-1.8	.	-1.3	.	-0.3	-4.4	1.2	1.0	-3.5	-2.7
T cruzi repl	-13	10	-8	-4	10	18	.	-2	-5	5
A1 inh	0.2	-1.8	-0.3	0.1	-8.4	0.3	0.4	0.2	0.5	1.3

# A draw from above in order of molar mass, largest number first.
12) COC(=O)C1=C(C)N(CCc2cc(OC)c(OC)c(OC)c2)C(=O)N[C@H]1c1ccc(Br)cc1
17) CCCN(CC(=O)Nc1ccccc1OC)C(=O)c1ccc2c(c1)NC(=O)C(C)S2 (stereo unspecified)
11) Cn1c(=O)c(Oc2ccc(Cl)cc2)c(O)c2ccccc21
Compound	12	17	11
Beta cell apopt	5	-2	1
LANA-H2B inh	1.3	-1.6	-3.1
Calb FLC	4	.	?
Beta2AR agonist	.	2	-3
ALR inh	-10	-7	-1
rRNA inh HTS	.	-10	-6
rRNA inh HTS OD600	.	-7	-6
rRNA inh HTS RFP	.	1.2	-1.8
T cruzi repl	10	.	-13
A1 inh	-1.8	0.4	0.2

# (listing goes on)
21) CC(=O)Nc1ccc(Oc2ccc([N+](=O)[O-])cc2Cl)cc1
22) CCOC(=O)c1cn(Cc2cccc(C)c2)nn1
23) Cc1snc(SCc2ccc(Cl)cc2)c1C#N
24) COc1ccc(NS(=O)(=O)c2cccc(NC(=O)COc3ccc(OC)cc3)c2)cc1
25) CCNC(=S)NNC(=O)C1CCN(Cc2ccccc2)CC1
26) Cc1ccc(C)c2nc3sc(C(=O)N4CCOCC4)c(N)c3cc12
27) O=C1NC(=O)/C(=C\c2ccc(Oc3ccc([N+](=O)[O-])cn3)cc2)S1
28) CC(C)CC(C(=O)NCC1CCCO1)N(C(=O)Cn1nnc(-c2ccc(F)cc2)n1)c1cccc(C(F)(F)F)c1 (stereo unspecified)
29) COc1ccc(-c2cc3c(=O)n(CC(=O)Nc4ccc(Cl)cc4)nc(C)n3n2)cc1
30) COC(=O)c1ccc(C(=O)OC)c(NC(=O)CSCc2ccc(Br)cc2)c1
Compound	21	22	23	24	25	26	27	28	29	30
Beta cell apopt	-9	3	-9	0	-9	-8	38	-9	6	-4
LANA-H2B inh	-4.4	0.7	2.4	8.4	-2.0	-6.4	-5.4	0.0	-0.4	1.6
Calb FLC	40	-4	-4	-9	-2	15	-7	11	16	4
Beta2AR agonist	9	2	0	-1	-1	6	8	-23	-7	4
ALR inh	6	-6	-2	3	.	14	?	-4	-3	-26
rRNA inh HTS	-5	9	-6	-12	16	-14	.	.	5	11
rRNA inh HTS OD600	-7	7	-3	-14	-2	-25	.	.	4	7
rRNA inh HTS RFP	0.9	-2.1	-1.7	-2.6	-1.6	-5.3	.	.	-1.4	1.3
T cruzi repl	1	-6	-1	-11	-10	-5	20	7	-8	19
A1 inh	0.2	0.3	-0.7	-0.7	0.0	-0.3	-0.6	0.1	0.9	-0.4

# Only rRNA inh HTS RFP, for some of the entries so far:
no. | SMILES | rRNA inh HTS RFP
30 | COC(=O)c1ccc(C(=O)OC)c(NC(=O)CSCc2ccc(Br)cc2)c1 | 1.3
26 | Cc1ccc(C)c2nc3sc(C(=O)N4CCOCC4)c(N)c3cc12 | -5.3
21 | CC(=O)Nc1ccc(Oc2ccc([N+](=O)[O-])cc2Cl)cc1 | 0.9
22 | CCOC(=O)c1cn(Cc2cccc(C)c2)nn1 | -2.1
25 | CCNC(=S)NNC(=O)C1CCN(Cc2ccccc2)CC1 | -1.6

# Compound profiles, as listed above. Screens in order: Beta cell apopt	LANA-H2B inh	Calb FLC	Beta2AR agonist	ALR inh	rRNA inh HTS	rRNA inh HTS OD600	rRNA inh HTS RFP	T cruzi repl	A1 inh
# `Cc1snc(SCc2ccc(Cl)cc2)c1C#N` reads -9	2.4	-4	0	-2	-6	-3	-1.7	-1	-0.7
# `CCOC(=O)c1cn(Cc2cccc(C)c2)nn1` reads 3	0.7	-4	2	-6	9	7	-2.1	-6	0.3
